Mtb growth – M. tuberculosis H37Rv growth inhibitors, H37Rv strain (AID 1626). M. tuberculosis H37Rv growth inhibition; higher % means a stronger effect. one-dose inhibition, % at 10 µM; IC50 in µM for titrated hits. 220,000 tested, 0.95% active;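 active means confirmed in a dose series; inconclusive means inhibition above 80% but not taken into the dose series; inactive means below 80% or under 30% at every dose of the series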;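 further: bacteria incubated seven days before Alamar blue readout; 0% = bacteria only wells and 100% = bacteria with antibiotic wells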
Arbovirus inh – antivirals against arbovirus infection; inhibition, % at 10 µM; arbovirus infection cell-based antiviral screen; 200,000 tested, 0.37% active;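 active means inhibition from about 30%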;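 further: bluetongue infection of BSR cells; cell survival read as ATP light after 72 h; 0% = infected wells without compound and 100% = uninfected wells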
RecA intein inh – blocks M. tuberculosis RecA intein splicing; 290,000 tested, 0.75% active; P9WHJ3; inhibition, %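 (about 9 µM by stock and volumes)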; cell-free RecA intein splicing, fluorescence; in the data active means inhibition above about 30%; inconclusive means no clear call, values can overlap the other calls;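 further: 0% = vehicle wells and 100% = reference inhibitor control wells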
Target sequence (P9WHJ3 whole entry, looked up): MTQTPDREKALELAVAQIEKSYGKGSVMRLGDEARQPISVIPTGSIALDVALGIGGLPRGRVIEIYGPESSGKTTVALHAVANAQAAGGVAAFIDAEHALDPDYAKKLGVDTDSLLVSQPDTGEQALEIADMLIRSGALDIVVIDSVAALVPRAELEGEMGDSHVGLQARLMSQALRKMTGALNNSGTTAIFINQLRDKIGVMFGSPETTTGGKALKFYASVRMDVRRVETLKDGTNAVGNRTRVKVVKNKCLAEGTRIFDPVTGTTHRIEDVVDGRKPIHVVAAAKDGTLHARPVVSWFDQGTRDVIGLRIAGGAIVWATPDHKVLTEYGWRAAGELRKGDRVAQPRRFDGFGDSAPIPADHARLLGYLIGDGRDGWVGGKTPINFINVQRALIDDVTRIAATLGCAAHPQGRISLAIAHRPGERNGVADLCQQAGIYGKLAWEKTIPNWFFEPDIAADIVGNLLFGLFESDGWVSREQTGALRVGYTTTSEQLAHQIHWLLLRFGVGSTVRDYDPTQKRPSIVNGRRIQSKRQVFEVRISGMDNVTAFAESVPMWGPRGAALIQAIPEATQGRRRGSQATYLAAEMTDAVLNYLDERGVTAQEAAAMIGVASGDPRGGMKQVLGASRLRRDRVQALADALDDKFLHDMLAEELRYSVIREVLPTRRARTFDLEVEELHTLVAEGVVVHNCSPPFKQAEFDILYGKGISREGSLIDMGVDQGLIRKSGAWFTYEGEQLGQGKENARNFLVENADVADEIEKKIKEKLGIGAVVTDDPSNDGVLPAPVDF
Mtb betalactam – beta-lactam sensitization of Mtb H37Rv. AID 434955. M. tuberculosis H37Rv growth with meropenem, percent inhibition; hits of this screen are not shown here. 330,000 tested, 0.27% active. inhibition, % at 25 µM;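 active means about 74% or more and at least 40 points above the plate without the antibiotic, then above 30% in a dose series; inconclusive means first-round hits that could not be retested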;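 further: growth measured after seven days incubation then overnight dye step; 0% = bacteria only wells and 100% = bacteria with antibiotic; twin plates without the antibiotic show which effects depend on it; some results filed as inactive read as strong as hits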
YopH PTP inh – YopH (Yersinia) phosphatase inhibition; inhibition, %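 (about 10 µM by stock and volumes)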; fluorescence Ex485/Em525; AID 898; 140,000 tested, 0.16% active;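 active means inhibition of 50% or more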;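 further: controls were vehicle for no effect and minimum signal wells for full effect; inactives centre near -20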
Arbovirus inh repeat – further read-out of Arbovirus inh, marked with its call; inhibition, %; measured here: 10K subset replicate screen; many hits read low in the repeat;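 first of two repeat runs on a subset; 0% = infected and 100% = uninfected wells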
Active calls of the source: *; u = inconclusive; x = not tested or not shown. Not all compounds are listed (hit frequency here may not be typical).

SMILES	Mtb growth	Arbovirus inh	RecA intein inh	Mtb betalactam	YopH PTP inh	others
COC(=O)c1cnc(Nc2cc(C)ccc2OC)c2ccccc12	x	x	-15.9	56.3	x
Cc1ccc(OS(=O)(=O)c2c(C)nn(C)c2Cl)c(C)c1	x	x	3.5	0.2	x
CC(C)(C)NS(=O)(=O)c1ccc(CCC(=O)Nc2ccc3c(c2)OCCO3)cc1	-4.0%	-5.8	-0.1	1.1	-27.4
CCCCNc1ncnc2c1cnn2-c1ccc(Cl)cc1	17.0%	-5.2	1.3	4.7	-17.3	Arbovirus inh repeat=-13.9
CCC(=O)Nc1ccc(N2CCN(Cc3ccccc3)CC2)cc1	-0.8%	2.1	x	-7.4	-38.2
COC(=O)C(C)Sc1nc2c(c(=O)n1-c1ccccc1)SCC2 (stereo not given)	-5.3%	1.4	2.0	-1.9	-24.9	Arbovirus inh repeat=-4.9
O=C(N/N=C/c1ccc([N+](=O)[O-])o1)c1cn(-c2ccccc2)nc1-c1ccc(F)cc1	-3.2%	-0.3	8.9	-2.7	x
COc1cccc(CN(C)CC(=O)Nc2c(C)cccc2C(C)C)c1	1.8%	7.2	0.4	0.6	x
COc1ccc(C(=O)Nc2nc(-c3ccc([N+](=O)[O-])cc3)c(-c3ccccc3)s2)cc1	2.6%	x	-1.3	4.3	-16.3
CCOc1ccc(NC(=O)CN(C)C(=O)CSC(C)C(=O)Nc2cc(C)on2)cc1OCC (stereo not given)	x	x	2.1	-4.5	x
NNC(=O)c1cc(C23CC4CC(CC(C4)C2)C3)[nH]n1	x	x	-1.6	58.2	x
COc1cccc(/C=N/NC(=O)CNC(=O)c2cccs2)c1O	-5.5%	x	-20.1	4.1	x
COc1ccc(-c2nn(-c3ccccc3)cc2C(=O)Nc2nc(CC(C)=O)ns2)cc1	3.7%	0.6	0.7	-2.5	-49.1
CN(C)c1ccc(N/C=C/C(=O)c2ccco2)cc1	-1.3%	-2.3	-1.8	71.9	-31.4
CC(=O)Nc1cccc(-c2nn[nH]n2)c1	x	x	-2.1	-14.2	x
O=C(NNC(=S)Nc1ccc(Cl)cc1Cl)c1ccncc1	u	14.3	4.5	93.3	-20.5
CC(C)COCC(O)CC(Cc1ccccc1)C(=O)NN (stereo not given)	-0.4%	-1.5	0.4	-13.9	x
O=C(Cc1ccc(S(=O)(=O)N2CCOCC2)s1)Nc1ccccc1N1CCOCC1	-0.4%	3.5	2.0	-14.0	x
Cc1ccc(C(C)NC(=S)NCc2ccc(F)cc2)cc1C (stereo not given)	x	x	7.5	-6.2	x
Cn1cc(C(=O)c2cccc(Cl)c2)cc1C#N	-7.7%	8.9	-2.2	3.1	x
CC(C)c1c(O)nc(SCCOc2ccc(Cl)cc2)[nH]c1=O	3.9%	x	2.7	10.8	x
COCCNc1ccc(-c2n[nH]c(=O)c3ccccc23)cc1[N+](=O)[O-]	x	x	0.9	-4.2	x
O=C(Nc1ccc(F)cc1F)c1cc2nc3c(c(C(F)(F)F)n2n1)CCCC3	6.6%	-9.0	-4.1	6.9	-23.8
COc1ccc(/C=C(\C#N)C(=O)c2cccn2C)cc1	x	x	-4.4	6.6	x
O=S(=O)(Nc1cc(S(=O)(=O)N2CCOCC2)ccc1N1CCOCC1)c1ccc2c(c1)OCCO2	-1.7%	3.3	-1.4	1.7	x
CCN1CCN(c2ncnc3c2cnn3-c2ccccc2)CC1	2.0%	7.0	1.4	-6.6	-31.4	Arbovirus inh repeat=-5.5
O=C(CCCN1C(=O)S/C(=C\c2ccccc2)C1=O)NNC(=O)c1ccccc1O	-12.1%	-19.3	1.5	-3.9	x
O=C(COCc1cc(-c2ccco2)on1)NC1CCCCC1	x	x	5.1	u	x
O=C(COC(=O)c1cc(S(=O)(=O)N2CCOCC2)ccc1Cl)Nc1ccc2c(c1)OCO2	-6.4%	-2.5	-1.8	-1.9	1.6
CC(NS(=O)(=O)c1ccc(CCC(=O)NCc2ccco2)cc1)c1ccccc1 (stereo not given)	-4.1%	1.4	-0.8	-3.5	-20.4
Cc1ccnc(NCc2cccc3ccccc23)c1	x	x	4.0	0.1	x
CC(c1ccccc1)N(CC(=O)NC1CCCCC1)S(=O)(=O)c1cccc(C(F)(F)F)c1 (stereo not given)	8.3%	-3.9	11.2	9.5	-8.7
CCn1cc(C2=NOC(C(=O)Nc3ccccc3C(=O)OC)C2)c(C)n1 (stereo not given)	-4.3%	9.8	-0.5	-9.2	-15.1
COc1cc([N+](=O)[O-])ccc1NC(=O)Nc1ccc2c(c1)OCCO2	5.5%	-0.1	-0.1	0.6	x
CCCc1nc2ccccc2c(C(=O)OCC(=O)c2ccc3c(c2)NC(=O)CO3)c1CC	-10.0%	-2.9	-1.0	1.9	-7.7
O=C(CSc1nccc(=O)[nH]1)N1CCN(c2ccccc2)CC1	3.4%	5.3	-0.9	-7.7	x

Gathered by group: the compounds so far containing fluorine (4)
SMILES	Mtb growth	Arbovirus inh	RecA intein inh	Mtb betalactam	YopH PTP inh	others
O=C(N/N=C/c1ccc([N+](=O)[O-])o1)c1cn(-c2ccccc2)nc1-c1ccc(F)cc1	-3.2%	-0.3	8.9	-2.7	x
Cc1ccc(C(C)NC(=S)NCc2ccc(F)cc2)cc1C (stereo not given)	x	x	7.5	-6.2	x
O=C(Nc1ccc(F)cc1F)c1cc2nc3c(c(C(F)(F)F)n2n1)CCCC3	6.6%	-9.0	-4.1	6.9	-23.8
CC(c1ccccc1)N(CC(=O)NC1CCCCC1)S(=O)(=O)c1cccc(C(F)(F)F)c1 (stereo not given)	8.3%	-3.9	11.2	9.5	-8.7

Continued:
SMILES	Mtb growth	Arbovirus inh	RecA intein inh	Mtb betalactam	YopH PTP inh	others
Cc1cc(C)c2[nH]c(C(=O)N3CCC(n4nccc4NC(=O)C4CC4)CC3)c(C)c2c1	x	x	0.9	1.9	x
CCOc1ccc(NC(=O)N[C@@H](Cc2ccccc2)C(=O)O)cc1	-7.1%	x	1.0	3.5	x
COc1ccc(OC)c2c1CC(C)(C)NC2=O	-2.1%	2.1	-1.9	-0.4	-7.8	Arbovirus inh repeat=2.7
CCOc1ccccc1CN1CCNC(=O)C1CC(=O)N(C)Cc1cnccn1 (stereo not given)	x	x	-1.6	-9.1	x
O=C(COc1nsnc1N1CCOCC1)N1CCOCC1	x	10.3	x	x	-45.7
CC1CC(C)(C)N2C(=O)C(=C(C#N)C#N)c3cccc1c32 (stereo not given)	-7.8%	x	27.9	0.2	x
Cc1ccccc1CSc1nnc(-c2ccccc2)c(=O)[nH]1	-0.1%	2.0	3.2	1.4	x
CCN(CC)c1ccc(C(=O)N/N=C/c2ccc(N3CCOCC3)cc2)cc1	-3.2%	2.2	-3.4	5.6	x
COc1ccc(CCNC(=O)c2cc(-c3ccncc3)nc3c(Cl)cccc23)cc1OC	5.5%	5.8	-1.0	-9.7	x
Cc1cc(=O)oc2cc(OC(C)C(=O)NC3CCN(Cc4ccccc4)CC3)ccc12 (stereo not given)	x	x	-0.9	-2.2	x
CCC(Oc1ccccc1)C(=O)OCC(=O)N(CC)c1c(N)n(Cc2ccccc2)c(=O)[nH]c1=O (stereo not given)	x	x	-1.1	-4.7	x
CCC(=O)Nc1nnc(SCC(=O)Nc2ccc(F)cc2)s1	-7.4%	8.7	0.9	-1.3	-4.4
CC(C)CNC(=O)CN(c1cccc(Cl)c1)S(C)(=O)=O	-1.1%	0.3	-2.0	-2.4	x
Cc1cc(C)c(C(=O)C(C)OC(=O)Cn2cnc3c2c(=O)n(C)c(=O)n3C)cc1C (stereo not given)	x	x	-0.4	-3.0	x
CC1=NN(c2ccccc2)C(=O)/C1=C\c1sccc1C	-4.1%	x	7.7	0.4	x
CCC(Sc1nc(C)cc(C)n1)C(=O)Nc1cc(C)on1 (stereo not given)	-6.0%	4.9	-1.3	3.6	x
CCn1nc(C)c(CNC(=O)CCc2nnc(-c3ccc(C(C)=O)s3)o2)c1C	-10.7%	-2.1	-0.9	-2.4	x
CCCCNC(=O)c1ccc2c(=O)n(CCCOCC)c(=S)[nH]c2c1	-14.6%	0.1	5.1	-0.8	4.2
COc1ccc(CNC(=O)COC(=O)CCOc2ccc(C)cc2)cc1	x	x	-0.7	55.5	x
Cc1cc2oc(=O)cc(CN(C)Cc3ccccc3Cl)c2cc1C	x	x	17.4	1.2	x
N#CCc1nc2n(n1)Cc1ccccc1-2	-1.1%	4.7	0.4	1.4	-7.4	Arbovirus inh repeat=-0.3
Cc1cc(C)cc(N(C(=O)c2csnn2)C(C(=O)NC2CCCC2)c2cccnc2)c1 (stereo not given)	x	x	-1.1	-9.1	x
Cc1cc(C(F)(F)F)nc(CCNCc2c(C(=O)N3CCCC3)nc3ccccn23)n1	2.3%	-1.6	-1.5	-2.4	x
CCCCC(c1nnnn1CS(=O)(=O)c1ccc(C)cc1)N1CCN(C)CC1 (stereo not given)	0.7%	6.3	-2.8	-3.6	x

Gathered by group, the compounds so far containing an NH in an aromatic ring (9)
SMILES	Mtb growth	Arbovirus inh	RecA intein inh	Mtb betalactam	YopH PTP inh	others
NNC(=O)c1cc(C23CC4CC(CC(C4)C2)C3)[nH]n1	x	x	-1.6	58.2	x
CC(=O)Nc1cccc(-c2nn[nH]n2)c1	x	x	-2.1	-14.2	x
CC(C)c1c(O)nc(SCCOc2ccc(Cl)cc2)[nH]c1=O	3.9%	x	2.7	10.8	x
COCCNc1ccc(-c2n[nH]c(=O)c3ccccc23)cc1[N+](=O)[O-]	x	x	0.9	-4.2	x
O=C(CSc1nccc(=O)[nH]1)N1CCN(c2ccccc2)CC1	3.4%	5.3	-0.9	-7.7	x
Cc1cc(C)c2[nH]c(C(=O)N3CCC(n4nccc4NC(=O)C4CC4)CC3)c(C)c2c1	x	x	0.9	1.9	x
Cc1ccccc1CSc1nnc(-c2ccccc2)c(=O)[nH]1	-0.1%	2.0	3.2	1.4	x
CCC(Oc1ccccc1)C(=O)OCC(=O)N(CC)c1c(N)n(Cc2ccccc2)c(=O)[nH]c1=O (stereo not given)	x	x	-1.1	-4.7	x
CCCCNC(=O)c1ccc2c(=O)n(CCCOCC)c(=S)[nH]c2c1	-14.6%	0.1	5.1	-0.8	4.2

Further records follow:
SMILES	Mtb growth	Arbovirus inh	RecA intein inh	Mtb betalactam	YopH PTP inh	others
O=C(Nc1nccs1)c1ccc(COc2ccc(F)cc2)o1	-9.5%	3.1	-0.8	-8.3	-17.9
Cc1cc(NC(=O)Nc2ccc(Cl)cc2)n(-c2ccccc2)n1	-0.2%	x	2.2	-6.1	x
CCOC(=O)c1c(C)[nH]c(C)c1C(=O)COC(=O)c1cccc(S(=O)(=O)N(CC)CC)c1	x	6.8	3.4	-4.4	-155.4
CC1(C)C(N(O)C(=O)Nc2ccc(Cl)cc2)N(c2ccc(Cl)cc2)C(=O)N1CC(=O)NN (stereo not given)	-9.4%	-5.5	-1.6	2.9	-33.8
COc1ccccc1CNC(=O)c1csc(Cc2ccc(Cl)cc2)n1	14.1%	-11.8	3.1	5.5	-13.8
CCc1cc(CNC(=O)C2CCC(=O)N(Cc3cccc(F)c3)C2)on1 (stereo not given)	x	x	-0.1	5.7	x
O=C(OCC(=O)N1CCCC1)c1cc(Cl)ccc1[N+](=O)[O-]	x	x	1.3	6.5	x
Cc1ccc(C(c2nnnn2CC2CCCO2)N2CCN(Cc3ccccc3)CC2)cc1 (stereo not given)	3.1%	0.9	0.5	0.8	x
O=C(/C=C/c1ccco1)Nc1ccccc1C(=O)Nc1cccc(C(=O)O)c1	5.6%	x	1.4	-2.6	x
C=C(C)COc1ccc(-c2ncncc2-c2ccc(Br)cc2)c(O)c1	x	x	12.9	4.8	x
O=C(Nc1cccc(-c2csc(Nc3ccc(Cl)cc3)n2)c1)c1cc([N+](=O)[O-])cc(C(F)(F)F)c1	5.1%	x	0.3	4.5	x
Cc1c(C(=O)NCCSCc2c(F)cccc2Cl)cnn1-c1ccc(F)cc1	5.0%	x	3.5	-3.8	x
CCCC(=O)C1=C(O)C(C(=O)OC)C(C)(C)CC1=NC(C)(C)C (stereo not given)	1.6%	3.8	-0.8	-7.0	-4.2
CN=C(Nc1ccc(C(=O)OC)s1)c1ccc(Cl)cc1	-2.8%	-8.8	1.0	7.1	x
S=C1N(c2ccccc2)C(c2ccccc2)N2CCCN12 (stereo not given)	-19.1%	-3.3	5.7	-8.5	-23.1
Cc1csc(NC(=O)CNC(=O)OCc2ccccc2)n1	-3.1%	-2.8	-0.5	3.6	-41.4
